Compound activity: PubChem, National Center for Advancing Translational Sciences (NCATS)
AmpC inh no det: blocks E. coli AmpC beta-lactamase in absence of detergent | P00811 | AmpC nitrocefin hydrolysis, absorbance 480 nm, no detergent; potencies from a single point are estimates | Potency, µM (top dose mostly 28.7 µM), inactives show at the highest dose activity change, negative = inhibition | 1.8% of 71,000 active | AID 585; active = falling curve, for most hits resting on a single point; inconclusive = weak or doubtful change; inactive = flat or rising curve; further: % of control where 0% means no effect; about half of the hits show no inhibition at the top dose; a quarter of the inactives give rising signals
Target sequence (P00811 whole entry, looked up): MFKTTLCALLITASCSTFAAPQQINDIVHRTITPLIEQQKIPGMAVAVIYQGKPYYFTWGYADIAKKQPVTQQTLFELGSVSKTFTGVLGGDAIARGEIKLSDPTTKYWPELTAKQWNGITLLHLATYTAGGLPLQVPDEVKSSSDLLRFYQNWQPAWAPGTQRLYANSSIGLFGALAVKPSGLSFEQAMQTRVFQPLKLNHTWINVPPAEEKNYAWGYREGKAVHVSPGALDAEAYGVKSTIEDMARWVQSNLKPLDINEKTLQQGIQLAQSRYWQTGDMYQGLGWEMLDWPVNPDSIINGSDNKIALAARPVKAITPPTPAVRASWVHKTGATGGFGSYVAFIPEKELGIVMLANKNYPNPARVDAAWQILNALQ
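AmpC, 20 mM phosphate pH 7.0; 15 min cpd preinc, RT; start with nitrocefin (800 uM stock); A480 kinetic read, 20 s intervals, 4 min. No-enzyme wells = negative control.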
An asterisk follows results filed as active; & = joins results of further samples; [ ] = dose if it differs, or a comment. Potency means the concentration at half of the fitted maximal effect. Only part of the results is shown, so the mix of outcomes need not match the whole.

SMILES | AmpC inh no det
CCOCCCNC(=O)C(c1ccc(OC)cc1)N(Cc1ccc2c(c1)OCO2)C(=O)CNC(C)=O (centres undefined) | 68%
CC(C)Cc1nc(SCC(=O)NCc2ccccc2)n[nH]1 | 2%
COc1ccc(C2N(c3cc(Cl)ccc3OC)C(=O)C3CCCN32)c(OC)c1 (centres undefined) | 70%
COc1ccc(C(=O)CSc2ncn[nH]2)cc1OC | 0%
O=C(OCCN1C(=O)c2ccccc2C1=O)c1cccc(OC(F)F)c1 | 4%
O=C(Sc1nnnn1C1CCCCC1)c1cccs1 | 10%
COc1ccc(-c2ccc(=O)n(CC(=O)Nc3cccc(O)c3)n2)cc1OC | 4%
COCCn1nnnc1CN1CCOCC1 | -16%
Cc1cccc(C(CC(=O)N2CCCC2)c2ccccc2)c1O (centres undefined) | 39%
O=C(CSc1ncc(-c2ccc(F)cc2)[nH]1)NCc1ccco1 | -8%
CCc1nnc(NC(=O)C2CCCN2S(=O)(=O)c2ccc(C)cc2)s1 (centres undefined) | 8%
Nn1c(Cc2ccccc2F)nnc1SCn1nnc2ccccc2c1=O | 6%
Cc1ccc(OCc2nnc(SCC(=O)Nc3cc(C)on3)n2C)cc1 | -7%
N[C@H](C(=O)O)c1ccc(O)c(C(=O)O)c1 | 1%
O=c1c(O)c(-c2ccc(O)c(O)c2)oc2ccccc12 | -19%
CCOC(=O)CN(C(=O)CSc1nnc(CNc2ccc(C)cc2C)n1CC)c1ccccc1 | 118%
O=C1NCC(O)=C1C=NC12CC3CC(CC(C3)C1)C2 | 2%
O=c1cc(CO)occ1O | 7%
Cc1cccc(NC(=O)C2c3ccccc3C(=O)N3CCc4ccccc4C23)n1 (centres undefined) | -9%
Cc1cc(=O)c2ccccc2s1 | 3%
COC(=O)c1ccc2c(c1)NC(=O)C(N1CCOCC1)S2 (centres undefined) | 2%
CC(C)C[C@@H](CC(=O)N[C@H](CC(=O)N[C@@H]1CCCC[C@H]1C(=O)N[C@H](CC(=O)N[C@@H](CCC(=O)O)CC(=O)O)CC(C)C)C(C)C)NC(=O)[C@@H]1CCCC[C@H]1N | 140%
O=C(CSc1nnc(-c2ccco2)o1)N1c2ccccc2CCc2ccccc21 | 34%
C=CCOc1ccc(NC(=O)C2CC(=O)N(C(C)C)C2)cc1 (centres undefined) | 2%
CC1=C(C(=O)Nc2ccc(F)cc2)C(c2ccncc2)C2=C(CCCC2=O)N1 (centres undefined) | -2%
COCCn1c(=O)c(-c2cn(C)c3ccccc23)nc2cncnc21 | 25%
O=C(Nc1ccncc1)Nc1ccccn1 | -17%
Cc1c(NS(=O)(=O)c2ccc3c(c2)c(=O)n(C)c(=O)n3C)c(=O)n(-c2ccccc2)n1C | 1%
Cc1cc(NC(=O)CSc2nnc(C(C)N(C)C)n2Cc2ccccc2)no1 (centres undefined) | 10%
CC1CCCN(C(=O)c2ccc3c(c2)C(=O)N(CCC2=CCCCC2)C3=O)C1 (centres undefined) | 140%
COc1cccc(S(=O)(=O)Nc2ccc(C(=O)N3CCOCC3)cc2)c1 | -8%
COCCn1c(=O)c(-c2cccc(C#N)c2)nc2cnc(Oc3ccc(OC)cc3)nc21 | 61%
Cc1nnc(NC(=O)c2cc3n(n2)C(C(F)(F)F)CC(C2CC2)N3)s1 (centres undefined) | 8%
CCC(C)(C(=O)NC1CCCCC1)N(Cc1ccco1)C(=O)c1ccc2c(c1)OCO2 (centres undefined) | 51%
Cc1ccc2nc3c(cc(C(=O)NCc4cccnc4)c(=N)n3C(C)C)c(=O)n2c1 | -1%
c1ccc(NNc2ccccc2)cc1 | -1%
CCc1ccc(N/C(SC)=C(/C#N)C(N)=O)cc1 | 8%
Nc1c(C(=O)NC2CCCCC2)nsc1C(=O)OCC(=O)NC1CCCCC1 | 44%
COc1ccc(-c2noc(COc3ccc4c(c3)OCO4)n2)cc1OC | 55%
CCOC(=O)COc1ccc(S(=O)(=O)Nc2ccc3c(c2)OCO3)cc1 | -12%
O=C(CN1CCN(c2ncc(C(F)(F)F)cc2Cl)CC1)Nc1ccc2c(c1)OCO2 | 50%
Cc1cc(=O)[nH]c(SCC(=O)Nc2ccc(S(=O)(=O)N3CCCCC3)cc2)n1 | -17%
Cc1coc2c(C)c3oc(=O)c4c(c3cc12)CCC4 | 17%
CC(C)CN1CCCC2(CCN(C(=O)c3cccc(F)c3)CC2)C1 | 73%
O=C(CCCN1C(=O)CCC1=O)Nc1ccc(Cl)c(C(F)(F)F)c1 | 11%
CC(C)n1cnc2cc(NCc3nc4ccccc4n3C)ccc21 | 9%
CC1CCN(S(=O)(=O)c2ccc3[nH]c(=O)cc(C(=O)O)c3c2)CC1 | -12%
Cc1ccc(S(=O)(=O)NC(C)C(=O)Nc2ccccc2C(=O)N2CCCC2)cc1 (centres undefined) | 21%
COc1ccc(Cn2c(C3CC3)nc3ccc(NC(C)=O)cc3c2=O)cc1 | 92%
CC(=O)Nc1nc(C(=O)Nc2c(C)n[nH]c2C)cs1 | 3%

Continuation.
SMILES | AmpC inh no det
CC(=O)c1c(N2CCN(Cc3ccccc3)CC2)[nH]c(-c2ccccc2)nc1=S | 18%
Cc1csc(NC(=O)CSc2nnc(C)n2Cc2ccco2)n1 | 6%
COc1ccc(C2C(C(=O)N3CCCCC3)CCC(=O)N2c2cc(OC)c(OC)c(OC)c2)cc1 (centres undefined) | 72%
CN(C)c1ccc(-c2noc(C3CCN(S(=O)(=O)c4cccc(Cl)c4)CC3)n2)cc1 | -8%
Cc1nn(CC(=O)N2CCN(Cc3ccccc3)CC2)c(=O)c2ccccc12 | 43%
COc1ccc(Oc2ncc3nc(CCc4ccccc4)c(=O)n(C4CC4)c3n2)cc1 | -1%
Cc1cc2n(n1)C(c1ccco1)Nc1ccccc1-2 (centres undefined) | 36%
O=C(CSc1ccc2nnc(-c3ccc(F)cc3)n2n1)N1CCCCC1 | 4%
Cc1cc(C(=O)CSc2nnc(NCc3ccccc3)s2)c(C)n1C | 2%
COc1cc(-c2nc3cnccn3c2Nc2ccc3c(c2)OCCO3)ccc1O | -2%

Given in markdown: entries from further up
| smiles | AmpC inh no det |
| --- | --- |
| O=C(CCCN1C(=O)CCC1=O)Nc1ccc(Cl)c(C(F)(F)F)c1 | 11% |
| CC(C)n1cnc2cc(NCc3nc4ccccc4n3C)ccc21 | 9% |
| CC1CCN(S(=O)(=O)c2ccc3[nH]c(=O)cc(C(=O)O)c3c2)CC1 | -12% |
| Cc1ccc(S(=O)(=O)NC(C)C(=O)Nc2ccccc2C(=O)N2CCCC2)cc1 (centres undefined) | 21% |
| COc1ccc(Cn2c(C3CC3)nc3ccc(NC(C)=O)cc3c2=O)cc1 | 92% |
| CC(=O)Nc1nc(C(=O)Nc2c(C)n[nH]c2C)cs1 | 3% |
| CC(=O)c1c(N2CCN(Cc3ccccc3)CC2)[nH]c(-c2ccccc2)nc1=S | 18% |
| Cc1csc(NC(=O)CSc2nnc(C)n2Cc2ccco2)n1 | 6% |
| COc1ccc(C2C(C(=O)N3CCCCC3)CCC(=O)N2c2cc(OC)c(OC)c(OC)c2)cc1 (centres undefined) | 72% |
| CN(C)c1ccc(-c2noc(C3CCN(S(=O)(=O)c4cccc(Cl)c4)CC3)n2)cc1 | -8% |
| Cc1nn(CC(=O)N2CCN(Cc3ccccc3)CC2)c(=O)c2ccccc12 | 43% |
| COc1ccc(Oc2ncc3nc(CCc4ccccc4)c(=O)n(C4CC4)c3n2)cc1 | -1% |
| Cc1cc2n(n1)C(c1ccco1)Nc1ccccc1-2 (centres undefined) | 36% |
| O=C(CSc1ccc2nnc(-c3ccc(F)cc3)n2n1)N1CCCCC1 | 4% |
| Cc1cc(C(=O)CSc2nnc(NCc3ccccc3)s2)c(C)n1C | 2% |
| COc1cc(-c2nc3cnccn3c2Nc2ccc3c(c2)OCCO3)ccc1O | -2% |

The results go on:
SMILES | AmpC inh no det
COc1ccccc1N1CCN(C(=O)CCCC2=NS(=O)(=O)c3ccccc3N2)CC1 | 4µM*[single pt active]
OCCN(CC(O)Cn1ccc2ccccc21)CC(O)Cn1ccc2ccccc21 (centres undefined) | 122%
N#Cc1c(C(F)(F)F)cc(-c2ccco2)nc1SCc1ccncc1 | 74%
Cc1ccc(/C(O)=C2\C(=O)C(=O)N(CC(C)O)C2c2cccc(F)c2)cc1 (centres undefined) | -1%
COc1ccccc1-c1nc(-c2cccc(C)c2)no1 | 5%
COc1ccc(-c2nc(CS(=O)CC(=O)NCCCN3CCCC3)c(C)o2)cc1OC (centres undefined) | 40%
O=C(Cn1nc(C(F)(F)F)c2c1CCC2)N1CCN(c2ccccc2)CC1 | 69%
CCn1cc(C(=O)NCCCOC)c(=O)c2cc(S(=O)(=O)N(C)C3CCCCC3)ccc21 | 162%
Clc1ccc(Nc2nc(-c3cccs3)cs2)nc1 | 0%
Cc1nc(SC(C)C)[nH]c(=O)c1Cc1ccccc1 | -7%
Cn1c(=O)c(C(=O)Nc2ncccn2)c(O)c2ccccc21 | -5%
COCCN(Cc1cc2cccc(C)c2n2nnnc12)C(=O)C(F)(F)F | 24%
Cc1ccc(O)c(Sc2cc(C)ccc2O)c1 | -21%
CCOC(=O)c1cc(S(=O)(=O)NC2CCN(C(=O)OCC)CC2)cn1C | 32%
CCN(CCN(C)C)C(=O)Cn1ncc2c1-c1cc(C)ccc1OC2 | 28%
CC(C)CCn1c(CN2CCN(C(=O)c3ccco3)CC2)nc2c1c(=O)n(C)c(=O)n2C | 12%
CCCCSCc1[nH]c(=O)[nH]c1C(=O)CCCCC(=O)OCC | 16%
COCc1nnc(SCC(=O)NC(C)c2ccccc2)n1-c1ccccc1 (centres undefined) | 26%
Cc1cc(-c2nnc3sc(-c4ccc(Cl)cc4Cl)nn23)n[nH]1 | -4%
CCOC(=O)C1CCN(C(=O)NC23CC4CC(CC(C4)C2)C3)CC1 | 32%
C/C(Cl)=C\Cn1c(Nc2ccccc2)nc2c1c(=O)n(C)c(=O)n2C | 67%
CC1(C)Cc2cccc(OCC(=O)Nc3ccccc3N3CCOCC3)c2O1 | 64%
Cc1ccc(N2C(=O)c3n[nH]c(C)c3C2c2cccnc2)cc1 (centres undefined) | 12%
Cc1ccc(N2CC(C(=O)Nc3nnc(C)s3)CC2=O)cc1 (centres undefined) | 6%
C=CCNC(=O)c1ccc(Cl)cc1Cl | -13%
CC(C)CC12CN3CCN(CC(C3)/C1=N/O)C2 | -1%
CCC(C)NC(=O)CSc1nc2ccccc2c(=O)n1CCCC(=O)NCC1CCCO1 (centres undefined) | 25%
CN1CCN(C(=O)c2ccccc2-c2ccccc2C(=O)O)CC1 | -6%
CSc1nc(N2CCOCC2)c2c3c(sc2n1)CCC3 | 17%
O=S(=O)(O)c1cc(O)c2c(O)c(N=Nc3cccc4ccccc34)c(S(=O)(=O)O)cc2c1 | -5%[5.75 µM]
C/C(N)=C(/C#N)C(=O)CSc1nnc(NC(C)C)s1 | -18%
COc1cccc(-c2ccc3ncnc(NCc4ccccc4)c3c2)c1 | -12%
COC(=O)c1ccc(C2c3c(n[nH]c3C)C(=O)N2c2ccc(C)cc2)cc1 (centres undefined) | 41%
CN(C)C(CNC(=O)Nc1cccc(Cl)c1)c1cccnc1 (centres undefined) | -11%
Cc1nc2cc(Cl)ccc2n1CCO | -1%
CN[C@H]1[C@H]2[C@H]3CCN2C[C@@H]1O3 | 6%
Cc1ccc(-c2noc(CCC(=O)NCC3CCN(Cc4cccc(C)c4)CC3)n2)cc1 | 87%
CCOC(=O)c1c(C)n(C)c2ccc(OCC(O)CN3CCCCCC3)cc12 (centres undefined) | 51%
COc1ccc(OC)c(NC(=O)C2=C(C)Nc3ncnn3C2c2cccs2)c1 (centres undefined) | -4%
COc1cccc(C2CC(C(F)(F)F)n3nc(C(=O)NCc4cccnc4)cc3N2)c1 (centres undefined) | 98%
Cc1ccc(S(=O)(=O)NC(=O)Nn2c(C)nnc2C)cc1 | -7%
c1ccc2sc(C3(N4CCCCC4)CCCCC3)cc2c1 | 27%&29%
CCC(=O)Nc1c(C(=O)Nc2cccc(OC)c2)oc2ccccc12 | 12%
CCC(=O)Nc1ccc(C(=O)Nc2cccnc2)cc1 | -16%
CCOc1ccc(C2CC(c3ccccc3C)n3ncnc3N2)cc1 (centres undefined) | 29%
Cc1nccn1C[C@@H]1CCc2c(c3ccccc3n2C)C1=O | 6%[12.8 µM]
Cc1nc(SCC(=O)N2CCN(c3ccccc3)CC2)c2oc3ccccc3c2n1 | 104%
O=C(c1ccco1)N1CCN(/C(=N/S(=O)(=O)c2cccs2)c2ccccc2Cl)CC1 | 53%
COC(=O)CN(c1ccccc1F)S(=O)(=O)c1ccccc1 | 9%
CN(C)c1ccnc(-c2ccccc2C(F)(F)F)n1 | -9%

Next results follow:
SMILES | AmpC inh no det
Nc1ncn([C@H]2O[C@@H](CO)[C@@H](O)[C@@H]2O)c(=O)n1 | -7%[12.8 µM]
O=C(CCC1CCCC1)N1CCN(C(=O)c2cccnc2)CC1 | 2%
O=C1CCC(=O)N1CCCCCc1nc(-c2ccccc2)no1 | 47%
CCn1c(SCC(=O)N2CCCc3ccccc32)nc2c1c(=O)n(C)c(=O)n2C | 55%
CC(C)(C)OC(=O)N1CCC[C@H]1c1nnc(SC/C=C/c2ccccc2)o1 | 84%
CN(Cc1nc(-c2ccncc2)no1)S(=O)(=O)c1ccc(Br)cc1 | 36%
CCOC(=O)N1CCC(N2C(=O)c3cc(C(=O)NC4CCCCC4)ccc3C2O)CC1 (centres undefined) | 30%
Cc1ccc(-n2ncc3c(=O)n(CC(=O)NCC4CCCO4)cnc32)cc1 (centres undefined) | -4%
COc1cccc(CN2CCCN(S(=O)(=O)c3ccc(Br)cc3)CC2)c1 | 25%
O=C(Nc1ccc2nc(-c3ccc(Br)o3)[nH]c2c1)c1cccs1 | -3%
CCCCOCCCNC(=O)N[C@@H](CC(C)C)C(=O)O | 4%
CC(c1ccccc1F)n1cc(C(=O)Nc2ccc3nc[nH]c3c2)nn1 (centres undefined) | 5%
O=c1cc(-c2ccccc2)nc2nc(COc3ccccc3)[nH]n12 | -11%
O=C(NCc1ccccc1)c1n[nH]nc1-c1ccccc1O | -10%
COC(=O)C1=C(C)NC(C)=C(C(=O)OC)C1C(=O)OC1CCCCC1=O (centres undefined) | 0%
